# Compound activity from PubChem.
# KinaseGlo FLuc: counter-screen: inhibitors of Kinase-Glo firefly luciferase; Kinase-Glo luciferase, ATP luminescence, 8 min; AID 1379; 0.28% of 200,000 active; Potency, µM (highest dose often 38.3 µM), for inactives: at the top dose activity change, negative = inhibition, most hits filed as inhibitors; further: potency means the concentration at half of the fitted maximal effect; on the % scale 0 is the no-effect control and ±100 the full control effect; nearly all actives have a fitted effect of over 60% in size
#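 Inhibition of Kinase-Glo luciferase light generation was assessed at 10 uM ATP in pH 7.2 imidazole buffer, with luminescence measured after eight minutes at ambient temperature.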
# CBFb-RUNX1 inh: blocks binding between human CBF-beta and RUNX1. 230,000 tested, under 10 active. AlphaScreen CBFb-His/RUNX1-biotin binding, biochemical. Q01196+Q13951. Potency, µM (doses to about 59.8 µM), without a hit: at the top dose activity, negative = inhibition, hits mostly inhibitors; further: % of control where 0% means no effect
# Target sequence (Q01196 whole entry, looked up): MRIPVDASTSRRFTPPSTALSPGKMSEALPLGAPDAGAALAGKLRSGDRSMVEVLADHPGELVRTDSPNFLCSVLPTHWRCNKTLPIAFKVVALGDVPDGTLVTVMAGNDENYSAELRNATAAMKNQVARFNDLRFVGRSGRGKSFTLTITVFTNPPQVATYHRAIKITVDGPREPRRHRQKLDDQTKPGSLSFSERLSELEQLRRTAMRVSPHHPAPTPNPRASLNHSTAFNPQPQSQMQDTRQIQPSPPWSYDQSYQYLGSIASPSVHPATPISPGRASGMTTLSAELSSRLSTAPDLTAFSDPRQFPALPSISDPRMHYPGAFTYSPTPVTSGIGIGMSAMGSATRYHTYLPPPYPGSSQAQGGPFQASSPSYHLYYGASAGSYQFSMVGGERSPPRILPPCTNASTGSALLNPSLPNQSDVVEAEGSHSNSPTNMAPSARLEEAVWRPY
# Target sequence (Q13951 whole entry, looked up): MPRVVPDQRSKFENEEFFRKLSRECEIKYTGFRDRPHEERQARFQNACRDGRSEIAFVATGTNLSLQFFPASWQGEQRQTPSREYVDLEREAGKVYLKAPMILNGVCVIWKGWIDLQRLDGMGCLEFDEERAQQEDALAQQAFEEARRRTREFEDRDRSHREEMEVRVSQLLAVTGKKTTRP
#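 His-tagged CBF-beta and biotinylated RUNX1 (30 nM each) were premixed 20 min at room temperature, exposed to compound for 15 min, then given nickel-chelate and streptavidin AlphaScreen beads (50 ng each). After 90 min, AlphaScreen signal was read.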
# aGal spleen mod: inhibits or activates alpha-galactosidase in human spleen homogenate; 0.008% of 240,000 active; Potency, µM (top dose mostly 80 µM), for the others: at the top dose activity change, negative = inhibition, actives largely listed as inhibitors; P06280; human spleen homogenate, 4MU-alpha-Gal fluorescence, 40 min;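 further: potency means the concentration at half of the fitted maximal effect; 0% = enzyme with vehicle and -100% = no enzyme basal signal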
# Target sequence (P06280 32-429 limits assumed): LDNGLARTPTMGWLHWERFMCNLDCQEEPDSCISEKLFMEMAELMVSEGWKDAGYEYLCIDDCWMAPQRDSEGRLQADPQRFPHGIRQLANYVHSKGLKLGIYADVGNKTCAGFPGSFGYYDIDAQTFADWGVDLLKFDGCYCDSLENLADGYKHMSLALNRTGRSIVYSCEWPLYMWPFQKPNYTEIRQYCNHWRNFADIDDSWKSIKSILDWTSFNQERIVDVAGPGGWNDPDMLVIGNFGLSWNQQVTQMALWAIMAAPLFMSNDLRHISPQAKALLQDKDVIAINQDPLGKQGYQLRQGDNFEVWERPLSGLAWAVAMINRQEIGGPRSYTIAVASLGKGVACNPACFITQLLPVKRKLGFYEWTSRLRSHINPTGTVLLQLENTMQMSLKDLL
#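 Fluorogenic readout (Ex 365/Em 440 nm) of 4-methylumbelliferone released from 1 mM 4-MU-alpha-galactoside by spleen homogenate, 40 min at 37C, pH 5.0. Data normalized to no-enzyme and enzyme controls; Hill-equation AC50 from compound titrations.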
# Epigenetic derep: derepresses silenced GFP reporter in murine cells; murine LDR cells, GFP reporter derepression, 30 h; 0.2% of 280,000 active; Potency, µM (top dose mostly 53.9 µM), without a hit: at the highest dose GFP activation, most hits filed as activators; further: potency means the concentration at half of the fitted maximal effect; % of control where 0% means no effect; nearly all actives have a fitted effect of over 60% in size
#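 Readout is the number of GFP-expressing murine LDR cells, counted by cytometry following washing. Cells were treated with compound for 30 h at 37 C; the stably integrated CMV-GFP locus is normally silent.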
# Lamin A splicing: LMNA splicing modulation; Potency, µM (top dose mostly 46.1 µM), inactives show at the highest dose ratio change, negative = inhibition, hits mostly inhibitors; HeLa LMNA splicing GFP/RFP minigene ratio, 48 h; AID 1487; 0.01% of 200,000 active; active means well fitted inhibition curve with a large enough effect in the signal ratio, with a control signal flat, not every such curve was filed as active; inconclusive means small, poorly fitted or top-dose-only effect, or effect the other way, or a change in a side signal; the % refers to the signal ratio; further: potency means the concentration at half of the fitted maximal effect; on the % scale 0 is the no-effect control and ±100 the full control effect
#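 S3 HeLa cells stably expressing lamin A-EGFP splicing minigene plus DsRed2, 600 cells/well, 48 h compound exposure at 37C. Laser-scanning cytometry; analysed as GFP (500-530 nm)/RFP (575-640 nm) total intensity ratio; 0.5% DMSO vehicle.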
# IMPase Li inh: IMPase inhibition in cells with lithium potentiation | CHO-M1 cells, IP1 TR-FRET (IP-One), carbachol + lithium | Potency, µM (series often up to 59.4 µM), inactives show at the top dose activity, negative = IMPase inhibition, hits mostly inhibitors | 0.35% of 210,000 active | AID 1457;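 further: IP1 builds up when IMPase is blocked and the TR-FRET signal falls; potency means the concentration at half of the fitted maximal effect; plate controls were basal vehicle for no effect and high inhibitor control for full effect; nearly all actives have a fitted effect of over 50% in size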
#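 Test compounds were applied to CHO-M1 cells previously cultured for 16–30 h at 2000 per well. A small lithium amount accompanied them; after 30 min at 37C, IP1 was quantified by TR-FRET.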
# * marks the source's active call; other numbers are inactive results; ? = inconclusive; . = not tested or not shown; [ ] = dose if it differs, or a comment. Unless noted, the call rests on the fitted dose curve; in most records, active means well fitted curve in the direction sought with a large enough effect; inconclusive means small, poorly fitted or top-dose-only effect, or another doubt; inactive means no such curve, though single readings can be large; an effect the other way counts as inactive or inconclusive. Only part of the results is shown; count on the stated rates, not on these rows.
SMILES,KinaseGlo FLuc,CBFb-RUNX1 inh,aGal spleen mod,Epigenetic derep,Lamin A splicing,IMPase Li inh
Brc1c(CSc2nnc(-c3ccco3)o2)nc2ccccn12,-10%,-5%,16%,-0.2%,-3%,11%[38.3 µM]
CCOC(=O)c1cc2nc(Nc3ccc(OC)cc3)sc2s1,0%,9%,16%,2.2%,10%,-1%[38.3 µM]
CCOC(=O)c1cc(=O)n(Cc2ccccc2C)c2ccccc12,1%,10%,2%,-1.8%,3%,28%[38.3 µM]
O=C(Nc1ccncc1)c1cc(-c2ccccn2)nc2ccc(Br)cc12,-1%,-8%,-10%,1.1%,?,2.8µM*
CCOc1ccccc1NC1c2ccccc2C(=O)N1Cc1ccco1 (centres undefined),-1%,-12%,0%,1.4%,6%,-2%[38.3 µM]
COc1ccc(OC)c(-n2c(-c3cccc(O)c3)n[nH]c2=S)c1,-1%,9%,-17%,0.9%,12%,-16%[38.3 µM]
CCSCCOC(=O)C1=C(C)NC(=O)NC1c1cc(OC)ccc1OC (centres undefined),0%,-1%,9%,-1.0%,13%,-2%[38.3 µM]
CCOc1ccc(C(=O)C(CN2CCOCC2)c2ccccc2)cc1 (centres undefined),3%,0%,0%,0.2%,14%,13%
Cc1ccccc1NC(=O)CN1CCC(NC(=O)Nc2ccccc2)CC1,0%,2%,0%,-0.8%,-2%,-10%[38.3 µM]
C=C(C)COc1ccc2c3c(c(=O)oc2c1OCC(=C)C)CCC3,1%,8%,-4%,2.8%,?,8%[38.3 µM]
CSCC[C@@H](C(=O)O)N1Cc2ccccc2C1=O,-1%,4%,6%,7.9%,2%,-12%[38.3 µM]
CCc1nc(N2CCCCC2C)c2oc3ccccc3c2n1 (centres undefined),1%,5%,-1%,0.0%,-28%,20%[38.3 µM]
Cc1ccc(S(=O)(=O)N(CC(=O)N2CCN(c3ccccc3F)CC2)C2CCCCC2)cc1,-3%,-5%,-19%,-0.1%,?,26%[38.3 µM]
COc1cc(NC(=O)c2ccc([N+](=O)[O-])o2)ccc1NC(=O)c1cccs1,0%,-13%,2%,7.7%,-26%[9.22 µM],6%
CC(Oc1ccc(F)cc1)C(=O)Nc1sc2c(c1C(=O)NCc1cccnc1)CCCC2 (centres undefined),.,-19%,11%,0.0%,?,.
CC(=O)C1=C(C)NC(SCC(=O)c2ccc(Cl)cc2)=C(C#N)C1CC(C)C (centres undefined),-4%,10%,7%,-2.5%,-6%,?
C=CCNC(=S)NC(=O)c1ccc(C)c(Br)c1,-3%,-7%,-7%,-0.1%,.,19%
COc1ccc(CN=C(C)c2c(C(F)(F)F)[nH]n(-c3nc4ccccc4s3)c2=O)cc1,-12%,1%,-8%,3.1%,8%,13%[38.3 µM]
COc1cc(C)c(S(=O)(=O)NCc2ccc3c(c2)OCO3)cc1C,-7%,1%,5%,0.7%,7%,16%[38.3 µM]
CN(C)/C=C/C(=O)c1ccc(N2CCN(c3ncc(C(F)(F)F)cc3Cl)CC2)cc1,1%,-1%,6%,4.3%,-3%,18%[38.3 µM]

# Filtered by structure: the entries above containing a thiophene ring, fused or not (3)
SMILES,KinaseGlo FLuc,CBFb-RUNX1 inh,aGal spleen mod,Epigenetic derep,Lamin A splicing,IMPase Li inh
CCOC(=O)c1cc2nc(Nc3ccc(OC)cc3)sc2s1,0%,9%,16%,2.2%,10%,-1%[38.3 µM]
COc1cc(NC(=O)c2ccc([N+](=O)[O-])o2)ccc1NC(=O)c1cccs1,0%,-13%,2%,7.7%,-26%[9.22 µM],6%
CC(Oc1ccc(F)cc1)C(=O)Nc1sc2c(c1C(=O)NCc1cccnc1)CCCC2 (centres undefined),.,-19%,11%,0.0%,?,.

# Remaining list, next part.
SMILES,KinaseGlo FLuc,CBFb-RUNX1 inh,aGal spleen mod,Epigenetic derep,Lamin A splicing,IMPase Li inh
NC1=NC[C@H](c2ccccc2)N1CCCCC1CCCCC1,.,13%,-2%,13%,.,.
Cc1ccc(Cn2ccc(=O)c(OCc3c(Cl)cccc3Cl)c2C)cc1,-1%,-2%,6%,-2.4%,?,11%[38.3 µM]
CCOC(=O)N1CCN(S(=O)(=O)c2ccc(OCC)c3ccccc23)CC1,0%,3%,-22%,-1.9%,?,14%[38.3 µM]
Cc1ccc(N2C(=O)c3ccccc3NC2C(C)Cc2ccc3c(c2)OCO3)cc1 (centres undefined),-1%,24%,18%,-1.2%,?,17%
COc1ccc(-c2c3c(=O)n(C)c(=O)n(C)c3cn2-c2ccccc2)cc1,2%,1%,-10%,-3.2%,-16%,32%[38.3 µM]
CC(=O)Cc1nsc(NC(=O)c2ccccc2)n1,-3%,3%,7%,-1.4%,12%,0%[38.3 µM]
COc1ccc(-c2nnc(Nc3ccc(OC)c(C(=O)N4CCCCC4)c3)c3ccccc23)cc1,3%,-1%,-4%,0.0%,0%,11%
O=c1cc(O)c2c(=O)n(Cc3ccccc3)c3ccccc3c2o1,1%,17%,0%,-1.1%,.,12%
COc1ccccc1-n1c(SCC(=O)NC2CCCC2)nc2cccnc21,-2%,5%,6%,-0.7%,-1%,19%[38.3 µM]
Nn1c(SCC(=O)Nc2ccc(S(N)(=O)=O)cc2)nnc1C(F)(F)F,.,1%,3%,0.1%,.,.
O=C(NNC(=O)C1CCCN(c2ncccn2)C1)c1ccc(F)cc1 (centres undefined),1%,-1%,1%,0.0%,4%,4%[38.3 µM]
O=C(Nc1ccc2c(c1)CCC2)c1cc2ccccc2o1,-5%,13%,1%,-0.1%,?,45%[38.3 µM]
O=c1cc(N2CCCCC2)c(-c2ccccc2)nn1Cc1ccc(Cl)cc1,-1%,1%,-19%,-2.2%,?,-2%[38.3 µM]
Cn1c(=O)c2c(SCc3ccccn3)nc(CC(C)(C)C)nc2n(C)c1=O,-2%,6%,-8%,0.0%,-5%,43%[activator][38.3 µM]
CCn1ncc(Br)c1C(=O)Nc1cc(C(=O)OC)ccc1C(=O)OC,0%,4%,-1%,0.0%,5%,34%[activator][38.3 µM]
O=C(NCc1ccc(Cl)cc1)c1ccc(COCC(F)(F)F)o1,2%,10%,-3%,0.0%,?,4%[38.3 µM]
O=C(/C=C/c1ccccc1)NC(NC(=S)Nc1ccc(Cl)cc1Cl)C(Cl)(Cl)Cl (centres undefined),-2%,-5%,7%,-0.1%,?,9%
CCOC(=O)CSc1nnc(NCC(=O)OC(C)C)c(=O)[nH]1,1%,6%,3%,0.0%,-6%,13%[38.3 µM]
CCCCn1c(SCC(=O)N2c3ccccc3Sc3ccccc32)nc2c1c(=O)n(C)c(=O)n2C,5%,0%,8%,4.2%,-27%,4%
CO[C@H]1C=CO[C@@]2(C)Oc3c(C)c(O)c4c(O)c(c5c(c4c3C2=O)NC2(CCN(CC(C)C)CC2)N=5)=NC(=O)C(C)=CC=C[C@H](C)[C@H](O)[C@@H](C)[C@@H](O)[C@@H](C)[C@H](OC(C)=O)[C@@H]1C,.,-11%,6%,1.1%,.,.

# Complete entries from above. Order of screens: KinaseGlo FLuc, CBFb-RUNX1 inh, aGal spleen mod, Epigenetic derep, Lamin A splicing, IMPase Li inh
# CCOC(=O)N1CCN(S(=O)(=O)c2ccc(OCC)c3ccccc23)CC1 in the list: 0%, 3%, -22%, -1.9%, ?, 14%[38.3 µM]
# CCOC(=O)CSc1nnc(NCC(=O)OC(C)C)c(=O)[nH]1 in the list: 1%, 6%, 3%, 0.0%, -6%, 13%[38.3 µM]
# CCCCn1c(SCC(=O)N2c3ccccc3Sc3ccccc32)nc2c1c(=O)n(C)c(=O)n2C in the list: 5%, 0%, 8%, 4.2%, -27%, 4%

# (continued)
SMILES,KinaseGlo FLuc,CBFb-RUNX1 inh,aGal spleen mod,Epigenetic derep,Lamin A splicing,IMPase Li inh
COc1ccc(CC(=O)Nc2cccc(-c3nnc(-c4ccc(C)cc4)o3)c2)cc1OC,-2%,6%,0%,2.3%,?,18%
COc1cc(CNC(C)c2ccccc2)cc(Cl)c1OCC(=O)Nc1ccccc1 (centres undefined),1%,?,-4%,12%,.,21%
Cc1cc(C)n(-c2nc(SCC(=O)Nc3nccs3)c3c4c(sc3n2)COC(C)(C)C4)n1,.,2%,0%,-6.3%,6%,.
CCN1C(=O)C(CC(=O)Nc2ccc(Br)cc2)N(CCCc2ccccc2)C1=S (centres undefined),0%,2%,5%,12%,?,29%[38.3 µM]
COC(=O)C1=C(C)Nc2nnnn2C1c1cccnc1 (centres undefined),7%,0%,2%,-0.8%,-14%,-6%
COc1ccc2c(Cl)c(-c3nnc(SCC(=O)c4ccccc4)n3C)sc2c1,-1%,14%,-14%,0.1%,?,30%[38.3 µM]
COc1cccc(OC)c1C(=O)Nc1c(C)n(C)n(-c2ccccc2)c1=O,8%,9%,-1%,-0.7%,?,-20%[38.3 µM]
CCCOc1ccc(/C=N/Nc2ccc(C(=O)O)cc2)c(OCCC)c1,0%,2%,9%,-5.3%,.,11%
COc1ccc(/C=C2/SC(=O)N(CCC(=O)Nc3ccc(C)cc3)C2=O)cc1OC,3%,1%,-15%,-1.0%,-6%,314%[activator]
Cc1ccc(OCC(=O)NNC(=O)C2CCN(c3ncccn3)CC2)cc1,-4%,4%,5%,0.0%,1%[0.0737 µM],-10%[38.3 µM]
CC(C)NC(=O)CC(=O)NN=C1CCCCC1,-2%,0%,-3%,1.1%,.,?
CCc1ccc2[nH]c(=O)c(CN(Cc3ccccc3)C(=O)Nc3ccccc3OC)cc2c1,-4%,-8%,7%,-1.1%,-15%,16%[38.3 µM]
O=C(c1cc(-c2cccs2)nc2ccccc12)N1CCN(S(=O)(=O)c2cccc(F)c2)CC1,-2%,0%,13%,-3.1%,-9%,3%[38.3 µM]
CC1CCN(C(=O)c2cc3nc(-c4ccccc4)cc(-c4ccccc4)n3n2)CC1,17%,7%,5%,0.1%,?,28%[38.3 µM]
CCCCCCOC(=O)c1ccc(NC(=O)c2cc(OC)c(OC)c(OC)c2Br)cc1,-4%,?,7%,5.3%,-15%,37%[activator][38.3 µM]
O=C(NCCc1c[nH]c2ccccc12)c1cnc2sccn2c1=O,-3%,0%,5%,0.8%,-15%,2%[38.3 µM]
Cc1c(Cl)c([N+](=O)[O-])nn1CCCC(=O)N(Cc1ccccc1)Cc1ccccc1,2%,-10%,6%,-1.1%,?,20%
CCOC(=O)Cn1c(=O)cnc2ccccc21,-1%,-3%,1%,0.8%,16%,17%[38.3 µM]
CCOC(=O)c1ccc(NC(=O)CC2C(=O)N(c3ccc(F)cc3)C(=O)N2CCC(C)C)cc1 (centres undefined),-2%,5%,0%,-0.7%,3%,31%[38.3 µM]
CC[C@H](C)[C@@H]1O[C@]2(CC[C@@H]1C)C[C@H]1C[C@H](CC=C(C)[C@@H](O[C@@H]3C[C@H](OC)[C@H](O[C@@H]4C[C@H](OC)[C@H](O)[C@H](C)O4)[C@H](C)O3)[C@@H](C)C=CC=C3CO[C@@H]4[C@@H](O)C(C)=C[C@@H](C(=O)O1)[C@]34O)O2,-3%[17.1 µM],14%[21.7 µM],5%[29.1 µM],-1.4%[16.9 µM],?,11%
CC(C)CC(C(=O)NC1CCCCC1)N(Cc1cccs1)C(=O)c1snc(C(N)=O)c1N (centres undefined),2%,-3%,5%,0.0%,.,11%
